Screening data (PubChem BioAssay)
H5N1 antiviral: MDCK cell protection from H5N1 avian flu. cytopathic effect, luminescence, 72 h; hits give high values; no value below 0 was filed and about half of the inactive calls have no number; reference of the scale not given here. inhibition, % at 50 µM. hit rate 0.07% among 96,000. AID 740, 2007; in the data active = inhibition above about 25%
* marks the source's active call; other numbers are inactive results; i = inactive. This is a subset (hit frequency here may not be typical).

SMILES	H5N1 antiviral
COC(=O)c1c(C)cc(OC(C)=O)c(C)c1OC(C)=O	0.8
CCc1nc(N2CCCC(C)C2)c2oc3ccccc3c2n1 (stereo unspecified)	i
CC(C)C(=O)NC(=S)Nc1ccc(S(=O)(=O)N(C)Cc2ccccc2)cc1	0.2
COc1cccc(Oc2nc3ncn(Cc4ccccc4)c3c(=O)n2C)c1	1.2
CCOc1cc(C(=S)N2CCOCC2)ccc1OC	0.7
O=C(N1CCCC1)n1c(Cc2ccccc2)nc2ccccc21	5.8
CS(=O)(=O)N1N=C(c2ccccc2)CC1c1cccs1 (stereo unspecified)	i
c1nc(NCC2(N3CCOCC3)CCCCC2)c2ccsc2n1	3.0
COc1ccc(OC)c(N=c2ssnc2Cl)c1	i
COc1ccc(C(=O)c2ccccc2)c2c(O)ccc(C(=O)c3ccccc3)c12	2.6
COCCNS(=O)(=O)c1ccc2c(c1)n(C)c(=O)n2C	i
CC(C)(C)C1CCC2(CC1)SCC(=O)N2c1ccccc1 (stereo unspecified)	0.9
CN(/N=C/c1cccnc1)c1cnn(-c2ccc(F)c(Cl)c2)c(=O)c1Cl	1.3
Cn1cnnc1SCc1nc(N)nc(Nc2ccccc2)n1	0.2
c1ccc(C2CC(c3cccs3)n3nnnc3N2)cc1 (stereo unspecified)	1.5

The closing four records of the part above are carried over, then new ones follow.
SMILES	H5N1 antiviral
CC(C)(C)C1CCC2(CC1)SCC(=O)N2c1ccccc1 (stereo unspecified)	0.9
CN(/N=C/c1cccnc1)c1cnn(-c2ccc(F)c(Cl)c2)c(=O)c1Cl	1.3
Cn1cnnc1SCc1nc(N)nc(Nc2ccccc2)n1	0.2
c1ccc(C2CC(c3cccs3)n3nnnc3N2)cc1 (stereo unspecified)	1.5
CCOC(=O)c1ccccc1NC(=O)CSc1nnc(COc2ccccc2)n1CC	i
COC(=O)C1CSc2[nH]c(=O)sc2C1c1ccccc1 (stereo unspecified)	0.0
Cc1cc(/C=C(\C#N)C(=O)Nc2ccc(F)cc2)c(C)n1-c1ccc(N2CCOCC2)c([N+](=O)[O-])c1	i
CN=C(c1ccco1)n1c(=S)nc(-c2ccco2)n(C)c1=S	1.9
O=C(/C=C/c1cc([N+](=O)[O-])ccc1OC(F)F)NCc1ccc(F)cc1	0.2
Cc1cc(O)c(C(C)C)cc1NS(=O)(=O)c1ccccc1	i
CCOc1ccccc1/C=N/Nc1ccccc1[N+](=O)[O-]	3.9
CS(=O)(=O)N1CCN(C(=O)Cc2cccs2)CC1	i
Cc1cccc(C)c1NC(=O)C(NC=O)c1ccccc1Cl (stereo unspecified)	i
COC(=O)c1cc(COc2ccc3oc(C)c(C(=O)OC)c3c2)c(C)o1	i
CCc1ccc(-c2nnn(CCC(=O)OC)n2)cc1	i
CC(C)CC(NS(=O)(=O)c1ccc2c(c1)oc(=O)n2C)C(=O)NC1CCCc2ccccc21 (stereo unspecified)	i
COc1ccc2[nH]c(=O)c(CN(Cc3cccs3)Cc3nnnn3C(C)(C)C)cc2c1	i
N#Cc1c(C(F)(F)F)cc(-c2cccs2)nc1SCc1cccnc1	0.2
Cc1cc(NC(=O)CC2CCCC2)n(-c2nc3ccccc3[nH]2)n1	i
Cc1ccc(NC(=O)c2noc3c2CC(C(C)(C)C)CC3)cc1 (stereo unspecified)	i
O=c1c(F)cn(C2CCCO2)c(=O)n1Cc1ccccc1Cl (stereo unspecified)	0.3
c1ccc(-c2nn3c(C4CCCCC4)nnc3s2)cc1	1.4
O=C(NCc1ccccc1)c1ccc(CS(=O)(=O)c2ccccc2)o1	0.0
Cc1ccc(-c2nc(CS(=O)CC(=O)NCCN3CCCC3)c(C)o2)cc1 (stereo unspecified)	i
O=C(Nc1nnc(COc2ccc(F)cc2)s1)c1cccs1	0.1
COc1ccc(C(=O)NCC(c2cccnc2)N2CCN(c3ccccc3OC)CC2)cc1OC (stereo unspecified)	i
FC(F)Sc1ccc(NC(=S)NC2CCCCC2)cc1	2.0
S=C1NC(c2ccccc2)N2C(=S)NC(c3ccccc3)N12 (stereo unspecified)	i
CCCCNC(=O)c1onc(CCl)c1C(=O)OC	0.4
O=C(c1ccco1)N1CCN(C(c2ccccc2Cl)c2nnnn2Cc2cccs2)CC1 (stereo unspecified)	i
CCN(CC)CC(=O)Nc1nn(-c2ccccc2)nc1C(N)=O	i
CCc1nc(SCc2cc(Cl)ccc2OC)n[nH]1	i
CCN(CC)S(=O)(=O)c1ccc(-c2nnc(SCC(=O)N3CCOCC3)o2)cc1	1.4
Nc1ccc2c(c1)COc1ccccc1O2	i

Looked up above.
Value for `O=c1c(F)cn(C2CCCO2)c(=O)n1Cc1ccccc1Cl` (stereo unspecified) in H5N1 antiviral: 0.3
Value for `Cn1cnnc1SCc1nc(N)nc(Nc2ccccc2)n1` in H5N1 antiviral: 0.2

Next section
SMILES	H5N1 antiviral
Cc1cccc(C)c1NC(=O)c1sccc1SCc1cccc(C(F)(F)F)c1	i
COc1cccc2sc(NC(=O)c3ccc(S(=O)(=O)N4CCOCC4)cc3)nc12	0.9
COc1ccc(S(=O)(=O)N(CC(=O)O)Cc2ccccc2)cc1OC	0.4
Cc1ccc(C(=O)Nc2nnc(C)s2)o1	1.4
Cc1ccc(C2C(C(=O)c3cccs3)=C(O)C(=O)N2CCN2CCOCC2)o1 (stereo unspecified)	i
Cc1ccc(-c2nnn(CCC(=O)N3CCCCC3C)n2)cc1 (stereo unspecified)	i
CCc1ccc(CCC(=O)Nc2ccccc2C(=O)O)o1	0.5
CC(Oc1ccc(Cl)cc1Cl)C(=O)NC1=NN(c2ccccc2)C(=O)C1 (stereo unspecified)	i
O=C(Nc1nc(-c2ccccc2)cs1)c1cccnc1	0.2
O=C1CC(Sc2nnc(-c3ccccc3O)o2)C(=O)N1c1ccccc1 (stereo unspecified)	i
CCOc1ccccc1NC(=O)CN(c1nccs1)S(=O)(=O)c1ccc(N)cc1	0.5
CC(NCc1ccco1)C(=O)N1CCc2ccccc2C1 (stereo unspecified)	1.1
CCn1c(SCC(=O)NCc2ccco2)nc2c(c1=O)SC(C)C2 (stereo unspecified)	3.4
CCOC(=O)c1sc2nccc(N(C)C)c2c1N=CNOCc1c(F)cccc1Cl	i
COc1c(F)c(F)c(C(=O)Nc2ccc3oc(-c4ccncc4)nc3c2)c(F)c1F	0.4
CC(=O)NCCOC(=O)Nc1cccnc1	i
Cc1ccc(S(=O)(=O)N2CCOCC2)cc1C(=O)NCc1cn2ccsc2n1	i
Cc1ccc2nc(C(F)OC(F)(F)F)[nH]c2c1 (stereo unspecified)	i
CCCN1C(=O)C2(/C(=C(\O)c3ccc4c(c3)OCCO4)C(=O)C(=O)N2CCCOC)c2ccccc21 (stereo unspecified)	i
CCCCNC(=O)c1cc(-c2ccc(OC)cc2)on1	i
O=C(c1ccco1)N1CCN(C(c2ccccc2)c2nnnn2Cc2cccs2)CC1 (stereo unspecified)	6.4
CCCc1cc(=O)[nH]c(SCc2cc(Cl)ccc2OC(F)F)n1	0.5
O=C(OC1CCOC1=O)c1cc(-c2ccc(Br)cc2)nc2ccccc12 (stereo unspecified)	i
O=C(/C=C/c1ccc(Cl)cc1)N1CCN(c2ncccn2)CC1	i
Nc1nc(SCc2ccc3c(c2)OCCO3)n[nH]1	0.1
CC(C)Oc1cc(NC(=O)CS(=O)CC(=O)Nc2cccc(C(F)(F)F)c2)c(Cl)cc1Cl (stereo unspecified)	i
COc1cc2cc(C)c(SCC(=O)N3CCOCC3)nc2cc1OC	2.8
CCOC(=O)c1sc2ccc(S(=O)(=O)N3CCOCC3)cc2c1N	0.8
Cc1ccccc1-c1noc(CCC(=O)NCC2CCCO2)n1 (stereo unspecified)	0.6
COc1cc(SC)ccc1C(=O)Nc1ccc2c(c1)OCCO2	0.2
OCCN1CCN(CCOc2cccc(Cl)c2)CC1	i
Cc1cc(C)nc(SCC(=O)Nn2cnnc2)n1	i
COc1ccc2c(c1)SC(C)CC2=O (stereo unspecified)	0.8
O=C(O)c1cccc(NC(=O)c2cccc(S(=O)(=O)N3CCCCC3)c2)c1	i
Cc1cc(C(F)(F)F)n2nc(-c3sccc3-n3cccc3)cc2n1	i
CCN(CC)S(=O)(=O)c1ccc(C(=O)Nc2cc(C)cc(C)c2)cc1	1.2
Cc1cc(N2CCN(c3ccccn3)CC2)n2cc(-c3ccccc3)nc2n1	1.4
c1ccc(-c2n[nH]c3ccccc23)cc1	0.0
CC(=O)NCCOc1ccc(C(=O)O)cc1	i
Nc1ccccc1C(=O)OCCOc1ccccc1	i
CCC(=O)N1c2ccc(S(=O)(=O)CCC(=O)N3CCN(c4ccccc4)CC3)cc2CC1C (stereo unspecified)	3.0
C=CCCC(=O)Nc1nc(C)c(-c2csc(Nc3cc(OC)ccc3OC)n2)s1	i
COc1cc2c(cc1OC)C(C(=O)O)C(c1ccc(C)o1)N(C)C2=O (stereo unspecified)	i
CCCc1nc(-c2ccccc2O)n(-c2ccccc2)n1	i
CC(=O)Nc1ccc(NC(=O)C2CCN(S(=O)(=O)c3cccc4nonc34)CC2)cc1	i

In the list so far, these contain a tert-butyl group:
SMILES	H5N1 antiviral
CC(C)(C)C1CCC2(CC1)SCC(=O)N2c1ccccc1 (stereo unspecified)	0.9
COc1ccc2[nH]c(=O)c(CN(Cc3cccs3)Cc3nnnn3C(C)(C)C)cc2c1	i
Cc1ccc(NC(=O)c2noc3c2CC(C(C)(C)C)CC3)cc1 (stereo unspecified)	i

(continued)
SMILES	H5N1 antiviral
Cc1ccc(OCC(O)CNS(=O)(=O)c2ccccc2C(=O)N2CCCCC2)cc1 (stereo unspecified)	1.0
Cc1ccc(-c2csc(=S)n2CC(=O)OCC(=O)NCc2ccc(F)cc2)cc1	i
CSc1nc(N)nc(SCC(=O)C(C)(C)C)c1C#N	i
COc1cc(-c2nn3c(-c4cccnc4)nnc3s2)cc(OC)c1OC	2.2
CCCC1C2CN(C(C)=O)CC=C2C(C#N)=C(N)C1(C#N)C#N (stereo unspecified)	1.2
COc1ccc(-c2nc3ccccc3n2Cc2ccc(C)cc2)cc1	0.1
COc1ccc(N/N=C2/CCCCC2=O)cc1	i
O=c1c2c3c(sc2nc2n1N=C(c1cccs1)CS2)CCCC3	i
CCNC(=O)NC1(C(=O)Nc2ccc3c(c2)CCC3)CCCCC1	1.5
Cc1cc(C)c(C#N)c(SCc2cc3c(cc2Cl)OCO3)n1	i
O=C(NCCCc1ccccc1)C1CCN(c2nnc(-n3cccc3)s2)CC1	0.1
Cc1cc(C)cc(NC(=O)c2ccc(CNc3c(N4CCOCC4)c(=O)c3=O)cc2)c1	2.4
COCCn1c(-c2ccco2)csc1=Nc1cccnc1	i
Cc1ccc([N+](=O)[O-])cc1NC(=O)CCSc1ccc(Cl)cc1	i
COCCN1Cc2cccc(C(=O)NC(C)c3cccs3)c2C1=O (stereo unspecified)	0.5
CCN1CCN(S(=O)(=O)Cc2ccccc2)CC1	i
Cc1ccc(S(=O)(=O)NCCc2ccc(S(N)(=O)=O)cc2)cc1	1.3
CCCc1cc(=O)[nH]c(SCC(=O)N2CCN(c3ccccc3)CC2)n1	0.6
O=C(Cn1cnc2ccccc2c1=O)NC1CCCc2ccccc21 (stereo unspecified)	i
CCNc1nc(NC(C)C)nc(Nn2cnnc2)n1	0.2
CN(C)C(=O)N1CCCC(C(=O)NCc2ccc(F)cc2Cl)C1 (stereo unspecified)	i
O=S(=O)(c1ccccc1)N1CCC(N2CCCCCC2)CC1	i
Cc1ccc(C(=O)Nc2nc3nc(-c4ccccc4)cc(=O)n3[nH]2)cc1	1.6
N#Cc1nc(-c2ccccc2F)oc1NCc1cccc2c1OCO2	i
CC(C)N1CC2=C(OC(N)=C(C#N)C2c2cccnc2)/C(=C/c2cccnc2)C1 (stereo unspecified)	0.1
O=C(O)C1C2C=CC3(CN(C/C=C/c4ccccc4)C(=O)C13)O2 (stereo unspecified)	i
CCN(CC)c1ccc(C2NC(=O)NC(C)=C2C(=O)Nc2ccccc2)cc1 (stereo unspecified)	i
CCOc1cc(C(=S)N2CCCCC2)ccc1OS(=O)(=O)c1ccc(Br)cc1	0.7
Cn1c(=O)c2c(nc(Br)n2CC(=O)c2cccs2)n(C)c1=O	i
CC(C)(C)c1ccc(NC(=O)CC2(C(F)(F)F)OCCO2)cc1	i

Part of the list above, with bars between the fields:
structure | H5N1 antiviral
Cc1ccc(NC(=O)c2noc3c2CC(C(C)(C)C)CC3)cc1 (stereo unspecified) | i
Cc1cccc(C)c1NC(=O)C(NC=O)c1ccccc1Cl (stereo unspecified) | i
Cc1ccc(OCC(O)CNS(=O)(=O)c2ccccc2C(=O)N2CCCCC2)cc1 (stereo unspecified) | 1.0
CCOC(=O)c1sc2ccc(S(=O)(=O)N3CCOCC3)cc2c1N | 0.8
S=C1NC(c2ccccc2)N2C(=S)NC(c3ccccc3)N12 (stereo unspecified) | i
CCNC(=O)NC1(C(=O)Nc2ccc3c(c2)CCC3)CCCCC1 | 1.5

New compounds follow:
SMILES	H5N1 antiviral
CCOC(=O)c1ccccc1NC(=O)CN(c1ccccc1)S(=O)(=O)N(C)C	0.7
COC(=O)c1cc(C(=O)c2cccc(Cl)c2Cl)cn1C	i
Cn1cnnc1SCC(=O)Nc1sccc1C#N	i
CC(=O)c1ccc(N2CCC(c3cc(-c4ccc(Cl)cc4Cl)n[nH]3)CC2)c([N+](=O)[O-])c1	1.9
CCc1nnc(NC(=O)CCC(=O)N2CCN(CCOc3ccc(C)cc3)CC2)s1	0.1
CC1=C(C(=O)OCc2ccccc2)C(c2ccccn2)c2c(n(C)c(=O)n(C)c2=O)N1 (stereo unspecified)	1.4
Cc1c(NC(=O)COc2ncnc3c(Cl)cc(Cl)cc23)c(=O)n(-c2ccccc2)n1C	i
CC(C)(C)NC(=O)CCC1COc2ccccc2O1 (stereo unspecified)	0.5
COc1cc(/C=N/O)cc(Br)c1OCc1ccc(Cl)cc1	i
CC(=O)c1c(C)[nH]c(C(=O)CSc2nnc(-c3ccccc3)n2Cc2ccc3c(c2)OCO3)c1C	i
CCN(CC)CC(=O)NCC1(c2ccccc2)CCOCC1	0.8
CC[n+]1c(/C=C/Nc2ccccc2)oc2ccccc21	0.7
